Six1-Eya2 inh = Six1/Eya2 interaction inhibition; AlphaScreen GST-Six1/His-Eya2 binding, biochemical; active compounds read low; control for the full effect not named in the record; activity change, % (test concentration not listed); hit rate 0.56% among 360,000; in the data active = activity change below about -65%; inconclusive = about -30% to -65%; inactive = above about -30%; also: % is scaled to controls: 0 for no effect and ±100 for the full control effect
Target sequence (O00167 whole entry, looked up): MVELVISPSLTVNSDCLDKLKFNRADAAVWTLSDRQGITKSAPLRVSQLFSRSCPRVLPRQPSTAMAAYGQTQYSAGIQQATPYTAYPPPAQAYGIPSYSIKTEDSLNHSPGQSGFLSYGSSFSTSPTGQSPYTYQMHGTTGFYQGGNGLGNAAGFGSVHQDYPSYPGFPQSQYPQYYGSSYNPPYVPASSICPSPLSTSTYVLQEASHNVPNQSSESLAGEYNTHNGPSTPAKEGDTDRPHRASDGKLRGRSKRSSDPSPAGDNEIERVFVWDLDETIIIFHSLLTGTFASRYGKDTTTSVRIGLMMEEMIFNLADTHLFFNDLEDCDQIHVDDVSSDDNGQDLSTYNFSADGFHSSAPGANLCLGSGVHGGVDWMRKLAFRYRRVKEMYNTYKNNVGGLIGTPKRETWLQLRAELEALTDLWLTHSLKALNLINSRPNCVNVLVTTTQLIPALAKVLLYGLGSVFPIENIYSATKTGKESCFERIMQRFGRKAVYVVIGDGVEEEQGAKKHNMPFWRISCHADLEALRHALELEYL
Target sequence (Q15475 whole entry, looked up): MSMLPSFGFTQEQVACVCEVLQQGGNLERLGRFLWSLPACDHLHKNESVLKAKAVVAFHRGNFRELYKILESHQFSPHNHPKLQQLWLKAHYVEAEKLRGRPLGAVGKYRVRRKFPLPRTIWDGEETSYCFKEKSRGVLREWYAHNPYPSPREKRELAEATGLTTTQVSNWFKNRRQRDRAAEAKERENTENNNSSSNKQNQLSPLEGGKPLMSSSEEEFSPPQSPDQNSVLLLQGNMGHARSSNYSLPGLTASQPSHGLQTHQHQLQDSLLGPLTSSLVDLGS
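Homogeneous AlphaScreen proximity assay pairing GST-Six1 with His-tagged Eya2 (added as 5X mix: 250 nM and 500 nM) in 50 mM Tris pH 8.0, 300 mM NaCl, 1 mM TCEP. Glutathione donor and nickel acceptor beads; 1 h, 37 °C, dark.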
gsp agonist = gsp mutant agonism; gsp mutant cells, cAMP HTRF, 30 min; control for the full effect not named in the record; Potency, µM (top dose mostly 76.9 µM), without a hit: at the highest dose activation (cAMP increase), hits mostly activators; hit rate 0.13% among 340,000; AID 624287; active = well fitted activation curve with a large enough effect; inconclusive = small, poorly fitted or top-dose-only effect, or another doubt; inactive = no such curve, though single readings can be large or run the other way; cell line not stated here;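 also: phosphodiesterase inhibitor Ro 20-1724 added with compounds to block cAMP breakdown; potency is read from the fitted curve at half-maximal effect; nearly all actives have a fitted effect of over 60% in size; about a fifth of the inactives were tested at one dose only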
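Cells in DMEM/10% FBS with G418 were pretreated with compounds in DMSO plus […] (300 uM stock) for 30 min at 37C. cAMP was measured by HTRF (cAMP-d2 plus anti-cAMP antibody-K) after 30 min at room temperature.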
D2 agonist = activates the human D2 dopamine receptor. DiscoveRx PathHunter D2 beta-arrestin, luminescence, 90 min; 100% = 57 uM dopamine signal. activation, % (concentration not given with the values). hit rate 0.084% among 360,000; in the data active = activation above about 40%; inconclusive = about 15% to 40%; inactive = below about 15%; also: compound concentration not given in the record; the text of the record calls up to 30% inactive
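DiscoveRx PathHunter D2 beta-arrestin cells (2,100/well) attached overnight, then compound-stimulated 90 min at 37 C in HBSS/10 mM HEPES/0.1% Tween-20 buffer; beta-galactosidase complementation read by luminescence after 1 h at ambient temperature. Dopamine 57 uM final (EC100) as control.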
gsp antagonist = antagonists of gsp mutant (McCune-Albright syndrome); gsp-mutant cells, cAMP HTRF, 30 min; control for the full effect not named in the record; Potency, µM (series often up to 76.9 µM), without a hit: top-dose activity change, negative = inhibition, usual class: inhibitors; AID 624288; hit rate 0.4% among 340,000; active = falling curve of any shape with a large fitted effect; inconclusive = falling curve, mostly with a smaller effect; inactive = flat or rising curve; cell line not stated here;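 also: intracellular cAMP measured with PDE inhibitor Ro 20-1724 present during compound exposure; potency is read from the fitted curve at half-maximal effect; % is scaled to controls: 0 for no effect and ±100 for the full control effect; nearly all actives have a fitted effect of over 65% in size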
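Cells, 2000/well, grown 16–24 h in DMEM 10% FBS with 0.5 mg/ml G418, then compounds plus […] (300 uM addition stock), 30 min at 37C. cAMP read by HTRF (cAMP-d2 and anti-cAMP antibody-K in lysis buffer) after 30 min RT.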
D2 PAM = potentiates the human D2 dopamine receptor allosterically; potentiation, % (test concentration not listed); hit rate 0.23% among 360,000; DiscoveRx D2 beta-arrestin cells, luminescence, 90 min; 100% = 57 uM dopamine signal; active = potentiation of 50% or more; inconclusive = 30% to 50%; inactive = 30% or less;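 also: compound concentration not given in the record; tested on top of an EC20 dose of dopamine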
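PathHunter beta-arrestin assay in DiscoveRx D2 cells. Compounds were added with an EC20 of dopamine (50 nM final) for 90 min at 37 deg C. Luminescence was read 1 h after detection reagent, with 57 uM dopamine as the EC100 control.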
CtBP-E1A inh = CtBP/E1A binding inhibition. hit rate 0.49% among 340,000. AlphaScreen GST-E1A/His-CtBP binding, 1536-well; active compounds read low; control for the full effect not named in the record. activity change, % (concentration not given with the values). AID 651724; in the data active means activity change below about -65%; inconclusive means about -30% to -65%; inactive means above about -30%; also: % is scaled to controls: 0 for no effect and ±100 for the full control effect
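Homogeneous bead-based format: GST-tagged E1A captured on glutathione donor beads, His-tagged CtBP on nickel acceptor beads; compounds precede bead addition by 2 h at 37 °C.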
An asterisk follows results filed as active; ? = inconclusive; / = not tested or not shown; [ ] = dose if it differs, or a comment.

SMILES	Six1-Eya2 inh	gsp agonist	D2 agonist	gsp antagonist	D2 PAM	CtBP-E1A inh
CCOC(=O)c1[nH]c(C)c(C)c1C	-6	3%	-2.6	6%	-2	0
COc1ncnc2c1oc1nc(CC(C)C)c3c(c12)CCCC3	8	5%[15.4 µM]	-1.4	6%	-16	-4
CC1(C)CC(=O)C2=C(C1)OC(N)=C(C#N)C2C1CC=CCC1 (stereo not given)	0	5%	-1.0	-13%	0	10
COc1ccc(/C=N/NC(=O)c2c(C)nc3ccc(Br)cn23)cc1OC	-2	-1%[15.4 µM]	0.7	-10%	-4	-4
C[C@@]12CCC=C[C@H]1[C@H](c1ccccc1Br)N(Cc1ccccc1)C2=O	-5	/	-4.0	-8%	/	0
COc1ccc2nc(C)cc(SCC(=O)N/N=C/c3ccccc3)c2c1	?	-8%	-0.6	3%	-9	-21
O=C(c1ccc(S(=O)(=O)N2CCCCC2)cc1)N1CCN(c2ccccc2)CC1	1	11%	-0.5	9%	-4	4
CCOC(=O)c1ccccc1NC(=O)C=C(C)C	27	-60%[inhibitor]	-3.4	0%	-11	0
CC1(C)CC(=O)C2=C(C1)OC(N)=C(C#N)C2c1cn(-c2ccccc2)nc1-c1ccc(F)cc1 (stereo not given)	0	-26%	0.0	-23%	1	5
CC1CCc2c(sc(NC(=O)c3nc4ncccn4n3)c2C#N)C1 (stereo not given)	1	-3%	-0.8	10%	-3	8
Cc1ccc(-c2cn3nc(C)c(C)nc3n2)cc1	5	-2%[15.4 µM]	-3.9	?	-6	7
Cc1c(Cl)cccc1NC(=O)C(=O)NNC(=O)c1ccccc1F	3	-28%	0.1	-3%	-2	3
Nc1nnc(SCC(=O)Nc2cccc3ccccc23)s1	12	0%	-2.6	0%	-5	4
CCCN1CCN(CCCNC(=O)c2cc3c(=O)oc4ccc(C)cc4c3s2)CC1	-3	?	-1.5	18%	-11	2
Cc1nc(CCNC(=O)CC2C(=O)NCCN2CC(C)C)nc2c1CCC2 (stereo not given)	3	2%	-4.3	10%	-13	0
CN(C)C(=O)COC(=O)c1ccccc1OCC(=O)Nc1ccc(SC(F)F)cc1	1	1%[15.4 µM]	?	-19%	7	0
COc1ccc2nc(C)cc(N3CCOCC3)c2c1	-2	2%	-1.0	14%	-5	0
COC(=O)C1=C(O)/C(=C/c2cccc(OC)c2O)N=C1C	0	0%	-8.3	?	-16	/
O=C(NCCc1ccc(Cl)cc1)C1CCN(C(=O)c2ccc(F)cc2)CC1	14	15%	4.2	-7%	-4	-11
Cc1cc(C)n(CCNC(=O)c2cc(COc3ccc4ncccc4c3)on2)n1	3	25%	-1.6	-27%	-8	-1
CCOC(=O)C1CCN(Cc2cn[nH]c2-c2ccc(C)cc2)CC1	5	3%	7.4	8%	-1	1
CCOc1ccc(C(C)NC(=O)Cc2ccccc2F)cc1OCC (stereo not given)	22	-24%[15.4 µM]	-3.5	19%	-3	-9
Cc1ccc(C2c3[nH]c4ccccc4c3C[C@H]3C(=O)N(c4ccccc4C(=O)N4CCC[C@@H]4C(=O)O)C(=O)N23)cc1 (stereo not given in full)	2	/	-4.8	2%	-16	0
CC(OC(=O)C1CC(=O)N(Cc2ccco2)C1)C(=O)Nc1ccccc1[N+](=O)[O-] (stereo not given)	-1	-3%	6.0	13%	5	0
COc1ccccc1NC(=O)Nc1nc(C(N)Cc2ccc(Cl)cc2)cs1 (stereo not given)	-2	/	12	/	-2	-20
CCN(C(=O)COc1cccc2cccnc12)C1CCS(=O)(=O)C1 (stereo not given)	?	-12%	1.5	6%	12	/
C/C(=N\Nc1nc(N2CCCCCC2)nc(N2CCCCCC2)n1)c1ccccc1	4	-4%	-9.6	55%[activator]	-9	/
Cc1cc(C)c2c(N=NN3CCCCC3)[nH]nc2n1	1	25%	0.1	5%	-14	-6
O=C(NNc1cc(C(F)(F)F)nc2ccccc12)Nc1cccc(Cl)c1	-3	?	6.7	-17%	-4	4
O=C(CS(=O)CC(=O)N(c1ccccc1)C(C(=O)NC1CCCCC1)c1ccco1)Nc1ccc(F)cc1 (stereo not given)	1	?	-2.5	1%	-17	-9
Cc1ccc(NC(=O)COc2ccc(N3CC(C(N)=O)CC3=O)cc2)c(C)c1 (stereo not given)	-2	-2%[15.4 µM]	-4.1	1%	-8	0
C1CCN=C(Nc2nn[nH]n2)CC1	9	13%	-1.9	2%	-6	-5
NS(=O)(=O)c1ccc(N/N=C/c2cn(-c3ccccc3)nc2-c2ccccc2)c([N+](=O)[O-])c1	0	-7%	-0.1	0%	9	/
Cc1cccc(/C(N)=N/OC(=O)COc2ccccc2Cl)c1	46	9%	1.8	-22%	-7	37
COC(=O)COc1cccc2c(=O)n(CC(=O)NCCc3ccccc3)ccc12	1	-10%	2.2	7%	-2	-3
CC(=O)c1cn(C2OC(CO)C3OC(C)(C)OC32)c(=O)n(C)c1=O (stereo not given)	5	10%[15.4 µM]	-3.6	-1%	-7	2
CCOC(=O)C(=O)Nc1nnc(SCc2ccc(F)cc2)s1	8	-29%	-5.1	-14%	0	0
CC1C(=O)OC(c2ccc(Cl)cc2)C(C)(C)C1=O (stereo not given)	1	8%[15.4 µM]	0.9	4%	-2	-19
Cc1ccc(NC(=O)/C(=C\c2ccc([N+](=O)[O-])cc2)NC(=O)c2ccccc2)cc1	-3	-5%	0.3	0%	-24	2
CCCCN(C(=O)C1CCCO1)c1c(N)n(CC(C)C)c(=O)[nH]c1=O (stereo not given)	4	-7%	1.8	-13%	-10	4
COc1ccccc1Cn1c(CO)nc2ccccc21	0	-11%	-4.0	3%	-4	-5
O=c1c2[nH]c3ccccc3c2ncn1CCN1CCCCC1	9	-4%	-0.5	11%	-17	2
O=C(CNS(=O)(=O)c1cccc(C(F)(F)F)c1)NC1CCCCCC1	8	-30%	4.2	4%	-2	3
Cc1ccc(NC(=O)Cc2ccc([N+](=O)[O-])cc2)c(Br)c1	4	11%	-2.9	-12%	3	-2
COc1ccc(C(=O)Oc2c(CN3CCOCC3)cc(Cl)c3cccnc23)cc1	?	0%	1.0	-9%	-18	-65*
Cc1nc(-c2ccccc2)[nH]c(=O)c1Oc1ccc(Cl)cc1Cl	0	0%	-4.5	-10%	-18	/
O=S(=O)(NC1CCCCC1Oc1ccccc1)c1ccccc1 (stereo not given)	29	-11%	-3.1	-16%	6	8
CCOC(=O)c1[nH]c(C)c(C(=O)OCC(=O)Nc2sc3c(c2C#N)CCCCC3)c1C	9	-6%	3.4	-8%	4	2
O=C(COc1cccc(Br)c1)Nc1ccc(N2CCOCC2)cc1N1CCOCC1	-1	7%	4.1	?	2	-4
Cc1ccc(NC(=O)NCCN2CCCCC2)cc1	-1	-13%	-8.0	15%	-7	0
Further compounds follow:
SMILES	Six1-Eya2 inh	gsp agonist	D2 agonist	gsp antagonist	D2 PAM	CtBP-E1A inh
O=C(CCN1C(=O)/C(=C/c2ccccc2)SC1=S)NNC(=O)c1ccncc1	3	-31%[inhibitor]	-1.7	40µM*	-4	-2
Cc1ccc(-c2nnc(NCc3nc4ccccc4[nH]3)c3ccccc23)cc1S(=O)(=O)N(C)C	-10	-6%	-2.2	0%	-6	-19
Clc1cc2c(nn1)Nc1ccccc1S2	0	-21%	-4.7	4%	-4	/
COc1ccc(S(=O)(=O)N2CCN(C(=O)N(C)C)C2C)cc1 (stereo not given)	9	9%[15.4 µM]	-4.0	8%	-3	0
Cc1ccc(S(=O)(=O)N2CCC(=O)N(C(COCc3cccc(C)c3)Cc3ccccc3)CC2)cc1 (stereo not given)	-14	-27%	1.6	-18%	-10	/
CC(C(=O)NC(C)(C)C)N(C(=O)CS(=O)CC(=O)Nc1ccc(F)cc1)c1ccccc1F (stereo not given)	6	7%	0.0	6%	-1	-1
CC(C)Nc1nc(-c2cccnc2)nc(-c2ccc(Cl)cc2)c1C#N	-8	-10%	1.3	19%	-2	-19
COC(=O)c1csc(C2OC(CO)C(O)C2O)n1 (stereo not given)	8	-22%	-2.9	/	-8	-1
S=C(NCCc1ccccc1)Nc1ccccn1	5	6%	-1.8	9%	-16	2
CCC(C)(C)NC(=O)C(C(C)C)N(CC1CCCO1)C(=O)CNS(=O)(=O)c1ccc(F)cc1 (stereo not given)	6	21%[15.4 µM]	1.1	-4%	-6	0
COc1cc(-c2c(C#N)c(N)nc3[nH]c(=S)[nH]c(=O)c23)ccc1O	-8	-5%	8.5	3%	?	/
O=C(COC(=O)CNC(=O)c1ccc(Cl)cc1Cl)NC(=O)NC1CCCCC1	-3	-12%	-2.5	-19%	8	2
CC(C)Sc1nnc(CNC(=O)C23CC4CC(CC(C4)C2)C3)n1Cc1ccccc1	1	5%	-0.9	-10%	-1	7
O=C(Nc1ccc(Oc2ccsc2C(=O)O)cc1)c1ccccc1	6	-39%[inhibitor]	-0.4	2%	-8	/
CCn1cc(C(=O)N(C)c2ccc(OC)cc2)c2cc(OC)c(OC)cc2c1=O	8	-15%	-5.1	14%	-4	7
CN(C)C(CNC(=O)c1cc(S(=O)(=O)N(C)c2ccccc2)ccc1Cl)c1ccccc1 (stereo not given)	2	-3%[15.4 µM]	1.4	-7%	1	-9
CN(C)C(=O)c1nnc(Cc2ccc(Cl)cc2)o1	2	1%	9.2	2%	-11	3
Cc1ccc(S(=O)(=O)N2CC(O)CC2C(=O)NCc2ccc3c(c2)OCO3)cc1 (stereo not given)	-12	-1%[15.4 µM]	-0.9	7%	-6	14
Cc1cccc(NC(=O)C(C)Sc2nc3nc(C)cc(C)n3n2)c1 (stereo not given)	-24	-4%[15.4 µM]	-2.1	-2%	-11	-5
CCc1nc2c(OCc3ccccc3)cccn2c1N(Cc1ccccc1)C(C)=O	-21	/	-1.7	/	-1	-9
COc1ccc(C(O)c2nccc3cc(OC)c(OC)cc23)cc1OC (stereo not given)	0	6%[15.4 µM]	?	11%	12	-6
O=C(CSCc1ccc(Br)cc1)N=Nc1c(O)[nH]c2ccccc12	-18	9%	0.4	-15%	-11	-8

Assay outcomes from PubChem BioAssay.
